Bead autofluor = compound fluorescence in toxin protease inhibitor counterscreen. compound autofluorescence counterscreen, microsphere flow cytometry; stronger effect = higher value. fluorescence intensity (test concentration not listed). actives 3.1% (n = 360,000);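 active = at least 3 SD above the mean of all compounds, about 16000 in these data; inconclusive = too few beads counted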;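 note: 100 nL of 1 mM stock went into each well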
BJeLR lethal = kills HRASV12-expressing BJeLR cells; BJeLR (HRASV12) viability, CellTiter-Glo ATP luminescence, 48 h; reference of the scale not given here; inhibition, % (test concentration not listed); actives 0.17% (n = 300,000);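 active = replicate mean above 50%; inconclusive = above 50% but judged a plate artefact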;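 note: 50 nL library stock added to about 25 µL; numbers are from one replicate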
Sa ugtP lethal = compounds lethal to S. aureus RN4220 ugtP deletion mutant | OD600 growth, 16 h; some inactives read as strong as hits | actives 0.54% (n = 330,000) | AID 1259309 | growth inhibition, % (no concentration beside the values);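 active = z-score under -3 and OD600 up to 0.15 on both plates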;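 note: plate controls were untreated wells for no effect and antibiotic for full effect; wells of about 80 µL received 100 nL stock; the first replicate is given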
RN4220 kill = kills Staphylococcus aureus RN4220. S. aureus RN4220 growth, OD600, 16 h. inhibition, % (test concentration not listed). actives 0.33% (n = 330,000). AID 1259311;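 active = z-score of -3 or lower and OD600 up to 0.18 on both plates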;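 note: plate controls were untreated cells for no effect and reference antibiotic for full effect; stock transfer was 100 nL into about 80 µL; one replicate is shown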
Mtb hypoxia inh = Mtb hypoxia fluorescent reporter inhibition | actives 0.1% (n = 300,000) | fluorescence inhibition, % (concentration not given with the values) | M. tuberculosis hypoxia-regulated fluorescent reporter, fluorescence | AID 1159583;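 active = 35 to 45% if threefold the growth effect, above 45% if 1.5-fold the growth effect; inactive = the rest, general growth blockers included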;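 note: wells of about 50 µL received 100 nL stock; 0% = vehicle wells and 100% = reference inhibitor wells; whole bacteria with a GFP reporter of the hypoxia response; strong numbers were not always called active; many hits fall short of the cut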
PrP 5UTR inh = suppresses PrP 5' UTR mRNA reporter expression; cell-based PrP 5' UTR mRNA reporter, plate reader; inhibition, % (concentration not given with the values); actives 0.35% (n = 340,000);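 active = every replicate at 50% or more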;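 note: 0 = median of the neutral control wells; tested in H4 reporter cells; numbers are from one replicate; inactives centre near -14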
Mtb hypoxia inh growth = recorded beside Mtb hypoxia inh, whose call it bears; growth inhibition, %; measured here: M. tuberculosis growth (absorbance);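 0% = vehicle and 100% = reference antibiotic; read after six days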
* = called active by the depositor; ? = inconclusive; / = not tested or not shown.

mol	Bead autofluor	Mtb hypoxia inh growth	Mtb hypoxia inh	Sa ugtP lethal	PrP 5UTR inh	BJeLR lethal	RN4220 kill
Fc1ccc2nc(C(F)(F)F)cc(N3CCOCC3)c2c1	3834	5	-3	16	-3	0	-0.2
COc1ccc2nc(NC(=O)CSc3cn[nH]n3)sc2c1	5485	0	-9	3	-68	8	3.5
CC(C)c1ccc(NC(=O)N(CCc2nc3ccccc3[nH]2)C2CCCC2)cc1	9873	0	4	-15	-19	0	-4.2
Cc1onc(-c2ccccc2)c1C(=O)n1cc(Br)cn1	4215	16	7	-4	0	-2	5.9
CCc1ccc(Oc2coc3cc(OCC(=O)Nc4cc(C)ccc4C)ccc3c2=O)cc1	2044	3	5	4	-12	11	5.7
COc1ccc(CCNC(=O)c2ccc(CS(=O)(=O)c3ccc(C)cc3)o2)cc1OC	4495	4	11	0	-8	7	1.0
Cc1ccc(OCC(=O)N(C)CC(=O)NCc2ccco2)c(Br)c1	4946	4	-7	1	-3	/	2.3
COc1cc2c(cc1OC)CN(c1ccc(-c3ccccc3OC)nn1)CC2	10893	/	/	/	-11	-16	/
COc1ccc(CNCC(=O)Nc2ccccc2-n2cccc2)cc1	4511	16	9	14	-26	4	6.6
CCOP(=O)(OCC)/C(=N/OC(=O)c1ccc(Cl)cc1Cl)C(N)=O	5555	/	/	/	-8	11	/
CCOc1ccc(-c2nc(N)ncc2-c2ccccc2OC)c(O)c1	4365	13	15	13	-12	-10	4.1
Cc1nc2c(C)[n+](CC(=O)c3ccccc3)ccc2n1C	5162	-8	-7	-3	/	-6	0.3
O=C(N/N=C/c1ccc[nH]1)c1ccccc1OCc1ccccc1Cl	4538	/	/	/	3	10	/
Cc1cccc(N(Cc2ccccc2)C(=O)CSC(C)C(=O)Nc2cc(C)on2)c1 (stereo not drawn)	?	-5	-1	2	-12	-4	0.7
O=C(N/N=C/C1C(=O)NC(=S)N(c2ccccc2)C1=O)c1cc(Br)c(O)c(Br)c1 (stereo not drawn)	3887	/	/	/	34	7	/
O=C(Nc1cccnc1)c1ccccc1NS(=O)(=O)c1ccc(F)cc1	3859	2	15	7	-24	0	1.1
Cc1ccc(C)c(CSc2nc3[nH]ncc3c(=O)[nH]2)c1	2538	5	11	-14	-56	23	-1.6
C(=N\N=C\c1ccccn1)/c1ccccn1	3502	/	/	/	-10	9	/
COc1ccc(C2C=CCN(C(=O)c3ccccc3)C(C)C(=O)N2Cc2ccc(F)cc2)cc1 (stereo not drawn)	/	-8	-1	6	/	/	8.2
Cc1cc(N2CCN(C)CC2)nc2ccc(NC(=S)NC3CC3)cc12	3727	6	4	-1	-5	-3	0.0
COc1ccc(N2C(=O)c3ccccc3C(C)(C)C2=O)cc1	5640	3	9	2	-14	-5	1.7
COc1cc(CN2CCN(CCCc3ccccc3)CC2CCO)cc(OC)c1 (stereo not drawn)	4270	1	8	8	-27	1	1.5
Cc1ccc(CN2CCCN(C)CC2)c(C)c1	3479	2	6	6	-32	-22	0.9
O=C(C1=C(O)C(=O)N(c2ncccn2)C1c1ccc(Cl)c(Cl)c1)c1ccco1 (stereo not drawn)	8573	/	/	7	-10	-3	4.7
CN(Cc1ccccc1)C(=O)c1ccc(NC(=O)Cc2ccc(NC(=O)C3CCCN(C(=O)C4CCCC4)C3)cc2)cc1 (stereo not drawn)	2867	2	-1	3	-21	/	4.1
CCCn1c2c(c(=N)c3c1CCC3)CCCC2	2121	7	10	3	-1	1	3.0
Cc1ccc(CN2CC(C(=O)Nc3cc(S(C)(=O)=O)ccc3Cl)CC2=O)cc1 (stereo not drawn)	2599	/	/	2	4	-6	2.3
CC12CCC(C(=O)N3CCN(c4ccccc4)CC3)(CC1=O)C2(C)C (stereo not drawn)	/	3	10	7	/	2	4.1
Cc1oc2c(CN3CCCC3)c(O)ccc2c(=O)c1-c1ccccc1	9877	11	3	-3	-23	/	2.6
Cc1oc2c(c1C(=O)c1ccc(Cl)cc1)C(=O)C(=O)c1ccccc1-2	1961	/	/	/	-17	-3	/

Some of these compounds in order of formula weight, high to low:
mol	Bead autofluor	Mtb hypoxia inh growth	Mtb hypoxia inh	Sa ugtP lethal	PrP 5UTR inh	BJeLR lethal	RN4220 kill
CN(Cc1ccccc1)C(=O)c1ccc(NC(=O)Cc2ccc(NC(=O)C3CCCN(C(=O)C4CCCC4)C3)cc2)cc1 (stereo not drawn)	2867	2	-1	3	-21	/	4.1
COc1ccc(CCNC(=O)c2ccc(CS(=O)(=O)c3ccc(C)cc3)o2)cc1OC	4495	4	11	0	-8	7	1.0
CCOP(=O)(OCC)/C(=N/OC(=O)c1ccc(Cl)cc1Cl)C(N)=O	5555	/	/	/	-8	11	/

Following part:
mol	Bead autofluor	Mtb hypoxia inh growth	Mtb hypoxia inh	Sa ugtP lethal	PrP 5UTR inh	BJeLR lethal	RN4220 kill
CCOC(=O)c1cccc(NC(=O)CCOc2ccccc2)c1	3725	0	11	-4	12	11	0.1
CC1CCN(C(=O)COc2ccc(Nc3ccccc3)cc2)CC1	3114	5	-2	2	-16	-4	-2.5
COCCCNC(=O)C1CCN(S(=O)(=O)c2ccc3nc4c(c(C(=O)O)c3c2)CCCCC4)CC1	6799	6	2	6	-13	4	4.5
CCC(CO)NC(=O)C1C=C2c3cccc4[nH]cc(c34)CC2N(C)C1 (stereo not drawn)	3309	1	0	-2	-4	2	4.6
COc1ccccc1CNC(=O)COc1ccccc1OC	2825	10	11	2	2	0	6.3
COc1ccccc1NS(=O)(=O)c1c(C)nc2sccn2c1=O	5771	8	7	7	-12	7	1.2
Oc1ccc(N=Nc2cccc(Cl)c2)cc1C=Nc1ccc(N2CCOCC2)cc1	2293	-4	10	12	-10	-3	-3.1
O=[N+]([O-])c1ccc(Oc2ccc(S(=O)(=O)N3CCOCC3)cn2)cc1	6469	-3	3	7	-12	2	3.3
c1ccc(CN2CCN(Cc3ccc4ccccc4c3)CC2)cc1	4073	2	6	20	5	-5	-3.1
N#Cc1ccncc1Sc1ccc(Cl)cc1	3681	7	17	-3	-10	8	1.0
Cc1nn(-c2ccccc2)c(C)c1C=NNC(=O)c1ccccc1O	/	4	4	1	/	/	2.9
Cc1nnc(SCc2ccc(Cl)c(Cl)c2)s1	1983	11	7	-3	-13	0	1.7
CCOC(=O)N1CCN(C(=O)c2ccc3c(=O)n(CCOC)c(=O)[nH]c3c2)CC1	6871	1	5	1	-16	5	-1.1
Cc1c(C(=O)N2CCN(S(=O)(=O)c3ccccc3F)CC2)oc2c(Cl)cccc12	2844	/	/	9	-3	/	-4.1
CC(C)(C)c1nnc(N/N=C/c2ccc(O)cc2)n(N)c1=O	9532	/	/	/	-24	-10	/
COc1cccc(CN2CC(C(=O)NCCn3cccn3)CCC2=O)c1 (stereo not drawn)	6269	5	4	5	-13	3	2.4
CC(CC(=O)NCCc1ccc(Cl)cc1)S(=O)(=O)c1ccc2c(c1)NC(=O)CO2 (stereo not drawn)	5853	5	11	5	-6	-4	2.4
CCN1CC2C3C(=O)N(Cc4ccccc4)C(=O)C3[C@](Cc3ccccc3)(C1=O)N2C(=O)c1ccc(C)cc1 (stereo partly drawn)	/	4	18	0	/	/	4.0
COc1ccc(NS(=O)(=O)c2cn(C)cn2)cc1	3487	12	18	4	-18	-13	2.3
CCn1cnc2c1c(=O)n(CC(=O)NCC(C)C)c(=O)n2Cc1ccccc1	3456	-3	-11	3	-14	-1	4.0
COc1cccc(N2CCN(c3ccc4nnc(CCC(=O)Nc5ccc(C)cn5)n4n3)CC2)c1	5310	-2	-7	5	-14	-2	-1.4
CC(C)(C)c1cc(C(=O)NCC(=O)OCC(=O)c2cccc([N+](=O)[O-])c2)cc(C(C)(C)C)c1	2146	-6	-6	8	-16	14	2.9
Nc1ccccc1N=c1ssnc1Cl	3737	4	4	4	-31	/	4.4
O=C(c1scc2c1CCCC2)N1CCOCC1	4206	/	/	2	-4	8	1.8
Cc1cc(C)c(NC(=O)c2ccccc2C(=O)c2ccccc2)c(C)c1	2080	7	13	12	-36	-2	8.0
CCOC(=O)Cn1nc(C)c(-c2ccccc2)c1N	9852	4	6	-7	-29	3	2.5
COc1cc(/C=N/NC(=O)c2cc(-c3c(C)nn(-c4ccccc4)c3C)n[nH]2)ccc1O	2609	/	/	/	-61	2	/
O=C1Nc2cc(C(=O)NCCCN3CCOCC3)ccc2S/C1=C/c1ccccc1F	4731	/	/	/	-6	-4	/
COc1ccccc1NC(=O)Cn1c(=O)n(-c2ccccc2)c(=O)c2oc3ccccc3c21	2503	-3	1	11	7	-6	4.7
CC(=O)Nc1ccc(Oc2nc(-c3ccccn3)nc3ccccc23)cc1	4097	23	16	1	-52	12	7.9
c1cnc2c(SCc3ccc(-c4nnco4)cc3)cccc2c1	2112	/	/	-6	-41	5	0.0
CC1Cc2ccccc2N1S(=O)(=O)c1cccc(C(=O)OCC(=O)NC2CCS(=O)(=O)C2)c1 (stereo not drawn)	3266	-26	23	-7	-16	-13	-15
O=C(COC(=O)c1ccc(C(F)(F)F)cc1)Nc1cccc(S(=O)(=O)NC2=NCCCCC2)c1	7809	13	5	-2	-17	/	-0.6
CC(C)c1ccc(C(O)c2nc3ccccc3n2C)cc1 (stereo not drawn)	4021	17	6	0	-8	-1	1.1
CC(C)=CCC/C(C)=C/COc1c2occc2cc2ccc(=O)oc12	6165	/	/	-6	-19	/	6.5
COc1cc(NC(=O)CN(c2ccc(C)cc2)S(=O)(=O)c2c(C)n[nH]c2C)cc(OC)c1	5330	3	12	13	-12	3	27
Cn1c(=O)c2c(nc(N3CCCCC3)n2CC(O)COc2ccccc2)n(C)c1=O (stereo not drawn)	3666	-2	5	1	-44	5	11
CC(=O)OCCCNc1cc(Sc2nc3ccccc3s2)c2nonc2c1[N+](=O)[O-]	15835	/	/	/	-9	1	/
O=C(Nc1ccccc1)C1CC(=O)N(Cc2ccccc2)C1 (stereo not drawn)	5762	1	4	5	-3	0	-0.6
CCOC(=O)Cc1csc(NC(=O)c2cnc3sc(C)cn3c2=O)n1	4200	-1	-1	6	-69	-2	1.8
COc1ccc(/C=C/C(=O)NC(=S)Nc2ccccc2C(=O)NC2CCCCC2)cc1	10672	9	11	6	4	-13	4.1
N#CC(C#N)=CN=c1ccn(Cc2ccc(Cl)cc2Cl)cc1	4589	7	1	13	-2	31	4.6
COC(=O)c1ccc(COc2ccc(NC(C)=O)cc2)o1	4182	-10	-11	4	-14	2	4.5
CCOC(=O)c1cnc(C(F)(F)F)nc1Oc1ccccc1	5113	-2	-11	14	-17	5	5.1
CC(C)(C)C1CCC(=O)N(CCC(N=[N+]=[N-])c2ccccc2)CC1 (stereo not drawn)	/	13	8	-7	/	/	5.2
Cc1ccc(CN(C(=O)COc2cccc(C)c2C)C2CCS(=O)(=O)C2)o1 (stereo not drawn)	6105	4	-4	7	1	-3	3.2
NC(=NOCc1ccccc1)c1nonc1N	/	6	6	-1	/	/	-0.9
COc1cc(C=O)ccc1OCC(=O)Nc1ccc2c(c1)OCO2	?	-6	12	11	-24	-3	0.9
Cc1ccc(NC(=O)c2ccco2)c(NC(=O)COc2ccccc2)c1	3797	6	-1	-4	10	-10	0.5
O=C(NN=Cc1cccs1)c1ccccc1-n1cccc1	/	5	8	4	/	/	4.2
CC1CN(c2ccc(NS(=O)(=O)c3ccccc3)cc2C(=O)O)CC(C)O1 (stereo not drawn)	4684	-4	9	0	-14	-6	4.7
CN(C)S(=O)(=O)c1cccc(NC(=O)COc2nc3ccccc3nc2N2CCOCC2)c1	10521	4	-6	-1	-22	-4	5.9
COc1ccc(NC(=S)N/N=C/c2cccn2Cc2ccc(F)cc2)cc1	4231	/	/	/	3	-5	/
COc1ccc(S(N)(=O)=O)cc1C(=O)NNC(=O)CN(C)S(=O)(=O)c1ccc(Cl)cc1	3710	6	8	3	-11	/	1.5
COc1ccc([N+](=O)[O-])cc1NC(=O)CCN1CCN(C)CC1	4365	-2	-3	3	-19	0	7.8
O=C(Cc1cccs1)Nc1ccc(N2CCOCC2)cc1	3441	5	4	0	-24	2	-2.4
COc1ccc(S(=O)(=O)Nc2ccccc2C(=O)N2CCCCC2)cc1C	5989	3	-1	-1	-13	-6	3.9
O=C(CNC(=O)COc1ccccc1)NCCN1CCOCC1	4563	-2	6	4	-33	/	-1.0

Screening results (PubChem BioAssay)
